# A647 autofl: compound autofluorescence in A647 spectral region; Compound fluorescence, A647 channel (570/671 nm), Tris buffer; max dye-equivalent concentration, M; 59,000 tested, under 10 active; AID 592; active means above 1 µM dye equivalent; inconclusive means 0.1 to 1 µM; inactive means 0.1 µM or less;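 also: values scaled relative to a standard on each plate; highest value over a series up to 38 µM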
#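 Buffer was dispensed, compounds and Alexa 647 standards were pin-transferred, and plates sat 15 min at room temperature. Intensity at 570/671 nm was then converted to dye-equivalent concentration using the plate's A647 standard curve.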
# A488 fluor: compound fluoresces in the A488 spectral region; max dye equivalency, M; AID 591; compound autofluorescence, A488 spectral region, dye equivalency; active compounds read high; 0.1% of 59,000 active; active = above 10 nM dye equivalent; inconclusive = 1 to 10 nM; inactive = 1 nM or less; about half of its hits are not listed in these tables;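 also: highest value over a series up to 38 µM; compound alone in buffer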
#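 Compounds pin-transferred into 100 mM Tris buffer, pH 8.0, incubated 15 min at room temperature, then imaged with 480 nm excitation/540 nm emission filters. Fluorescence converted to Alexa 488 dye-equivalent concentration via an on-plate six-point A488 standard curve.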
# TSHR ag: TSH receptor (human) agonism; P16473; HEK293-CNG-TSHR cells (CNG channel as cAMP sensor), membrane potential dye, cAMP; Potency, µM (top dose mostly 57.1 µM), for inactives: at the top dose activation, hits mostly activators; 0.48% of 73,000 active; AID 926; active = well fitted activation curve of enough size with the parental cells flat; inconclusive = any curve in the parental cells; inactive = parental cells flat and receptor cells flat or falling; also: potency is read from the fitted curve at half-maximal effect; % of control where 0% means no effect; weak receptor curves with flat parental cells got no call and are not listed
# Target sequence (P16473 whole entry, looked up): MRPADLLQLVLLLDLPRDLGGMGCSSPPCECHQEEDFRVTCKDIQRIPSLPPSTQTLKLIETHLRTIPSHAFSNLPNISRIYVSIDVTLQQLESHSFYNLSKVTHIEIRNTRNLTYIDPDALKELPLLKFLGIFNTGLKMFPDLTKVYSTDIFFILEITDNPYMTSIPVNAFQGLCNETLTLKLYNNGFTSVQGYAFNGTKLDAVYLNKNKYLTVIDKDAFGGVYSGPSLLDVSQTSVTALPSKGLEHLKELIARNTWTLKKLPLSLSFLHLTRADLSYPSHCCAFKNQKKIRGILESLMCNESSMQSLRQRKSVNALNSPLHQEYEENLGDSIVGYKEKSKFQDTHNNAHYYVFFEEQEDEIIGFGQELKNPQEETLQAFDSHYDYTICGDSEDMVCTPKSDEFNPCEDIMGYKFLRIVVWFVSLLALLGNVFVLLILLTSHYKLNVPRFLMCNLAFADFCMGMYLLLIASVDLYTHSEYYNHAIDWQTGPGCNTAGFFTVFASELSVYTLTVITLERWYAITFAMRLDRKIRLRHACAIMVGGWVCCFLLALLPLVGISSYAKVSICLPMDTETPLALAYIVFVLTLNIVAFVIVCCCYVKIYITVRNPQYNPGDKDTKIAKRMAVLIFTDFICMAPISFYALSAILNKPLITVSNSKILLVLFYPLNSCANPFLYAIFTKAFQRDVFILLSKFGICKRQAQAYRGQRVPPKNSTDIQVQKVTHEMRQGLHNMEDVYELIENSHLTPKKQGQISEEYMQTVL
#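 HEK 293 cells stably expressing TSHR and a cAMP-gated CNG channel; parental CNG-only cells as counterscreen. Cells preloaded 60 min with membrane potential dye plus 100 uM RO 20-1724, then compound 30 min; fluorescence read at 590 nm.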
# Resorufin autofl: compound fluoresces in the resorufin spectral region. Compound fluorescence, resorufin region 547/598 nm, buffer; active compounds read high. max dye-equivalent concentration, M. 0.04% of 59,000 active. AID 588; active = above 10 nM dye equivalent; inconclusive = 1 to 10 nM; inactive = 1 nM or less; a few of its hits are not listed in these tables; also: highest value over a series up to 38 µM
#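 Dye-equivalent concentration values derive from comparing each well's 547/598 nm fluorescence against resorufin standards included on every plate. Incubation was 15 min at room temperature in 100 mM Tris, pH 8.0.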
# AID923: qHTS Assay for Allosteric/Competitive Inhibitors of Caspase-1: Spectroscopic Profiling in AFC Spectral Region; compound fluorescence, AFC spectral region (405/520 nm); almost no hit is shown here; Potency, µM (doses to about 57.5 µM), without a hit: top-dose fluorescence increase, actives largely listed as activators; 1.1% of 75,000 active; active = well fitted activation curve with a large enough effect; inconclusive = small, poorly fitted or top-dose-only effect;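 also: potency is read from the fitted curve at half-maximal effect; 0% is about no effect; scaled to a free AFC standard on each plate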
#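 Baseline compound fluorescence (AFC region, 405 nm ex/520 nm em) taken from the intercept of kinetic reads with 50 nM caspase-1 and 5 uM Ac-WEHD-AFC; normalized to an on-plate AFC standard curve; compounds titrated up to 57 uM.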
# Numbers without * were called inactive; i = inactive; ? = inconclusive; · = no result given; [ ] = remark or other dose. Only part of the results is shown; count on the stated rates, not on these rows.
No.	SMILES	AID923	Resorufin autofl	TSHR ag	A488 fluor	A647 autofl
1	CCC(=O)Oc1ccc(-c2nc(-c3cccnc3)no2)cc1	-1.9%	i	-16%	i	7.9e-09
2	COc1ccc2cc3cc(C(=O)NCc4ccccn4)oc3nc2c1	3.9%	i	4%	i	1.6e-09
3	C=CC(C)(O)CCC=C(C)C (centres undefined)	-1.1%	·	-10%	·	·
4	CC1=C(C#N)C2C(/C1=N/O)C2(C)C (centres undefined)	2.7%	·	-7%	·	·
5	CCCCn1nnnc1SCC(=O)N1CCN(C(=O)c2ccco2)CC1	-2.1%	i	0%	i	5e-09
6	COc1ccc(S(=O)(=O)Nc2ccc(C)cc2)cc1OC	-1.2%	i	5%	i	1e-09
7	COCCNc1ncnc2ccc(-c3ccccc3C(F)(F)F)cc12	-1.8%	i	?	i	3.3e-08
8	Cc1cccc(NC2=NC(C)(C)N=C(N)N2)c1C	0.4%	i	-8%	i	2.7e-08
9	O=C(Cn1ccc(=O)[nH]c1=O)Nc1ccc(C(=O)O)c(O)c1	5.2%[11.5 µM]	i	-5%[11.4 µM]	i	2.8e-08
10	CCCCNC(=O)OCCNC(=O)Oc1cccc(C)c1	-1.2%	i	5%	i	1.9e-09
11	CCCNC(=O)Cc1cc(=O)[nH]c(=O)[nH]1	-4.9%	·	?	·	·
12	COc1ccc(-n2c(=O)c(-c3cccc(C#N)c3)nc3cnc(N4CCNCC4)nc32)cc1	16%	i	?	i	2.7e-08
13	Cc1cccc(C)c1NC(=O)C1CC(=O)N(C(C)C)C1 (centres undefined)	-0.3%	i	2%	i	2.2e-08
14	OC[C@@H]1O[C@@H](n2cnc3c(NC4CCCC4)ncnc32)[C@H](O)[C@H]1O	-2.4%	·	?	·	·
15	CCOC(=O)N1CCC(NC(=O)CCc2c(C)nc3c(c(C)nn3-c3ccccc3)c2C)CC1	-0.1%	·	-3%	·	·
16	CSc1nc(C2CC2)cc(-c2cccs2)c1C#N	1.9%	i	?	i	3.3e-08
17	CCOC(=O)c1cnn(-c2ncnc3sc(CC)cc23)c1N	1.3%	·	4%	·	·
18	CCOc1ccc(/C=N/n2cnnc2)cc1	-0.4%	·	-1%	·	·
19	Cc1ccc2oc(=O)c3cnn(CC(=O)N(CCC(C)C)Cc4ccco4)c3c2c1	3.5%	·	?	·	·
20	COC(=O)c1[nH]c2cccc(OC)c2c1NC(=O)CN1CCN(c2cccc(OC)c2)C(C)C1 (centres undefined)	0.6%	i	-3%	i	1e-09
21	NC(=O)c1cnn2c1NC(c1ccc(F)cc1)CC2C(F)(F)F (centres undefined)	-2.2%	i	-9%	i	3.6e-08
22	CCCOc1ccc(/C(O)=C2/C(=O)C(=O)N(CCCN3CCOCC3)C2c2ccncc2)cc1 (centres undefined)	·	i	·	i	4.4e-09
23	CCn1c(=N)n(CC(=O)C23CC4CC(CC(C4)C2)C3)c2ccccc21	3.9%	i	19%	i	1.9e-09
24	Cc1cc(C)nc(NC(=O)c2cc3ccccc3o2)n1	3.2%	·	11%	·	·

# In the list so far, three have an NH in an aromatic ring:
No.	SMILES	AID923	Resorufin autofl	TSHR ag	A488 fluor	A647 autofl
9	O=C(Cn1ccc(=O)[nH]c1=O)Nc1ccc(C(=O)O)c(O)c1	5.2%[11.5 µM]	i	-5%[11.4 µM]	i	2.8e-08
11	CCCNC(=O)Cc1cc(=O)[nH]c(=O)[nH]1	-4.9%	·	?	·	·
20	COC(=O)c1[nH]c2cccc(OC)c2c1NC(=O)CN1CCN(c2cccc(OC)c2)C(C)C1 (centres undefined)	0.6%	i	-3%	i	1e-09

# Going on with the list:
No.	SMILES	AID923	Resorufin autofl	TSHR ag	A488 fluor	A647 autofl
25	CCC(=O)N(Cc1cc(=O)[nH]c2ccccc12)c1cccc(C)c1	0.2%	i	5%	i	2.2e-08
26	CCCSc1nc2c(cnn2-c2ccc(Cl)cc2)c(=O)[nH]1	0.2%	i	0%	i	1.8e-08
27	c1coc(CNCC2OCCc3ccccc32)c1 (centres undefined)	-0.9%	i	?	i	2.7e-08
28	CC(C)c1nc(SCC(=O)N2CCN(c3ccccc3)CC2)c2c(=O)n(C)c(=O)n(C)c2n1	3.2%	·	9%	·	·
29	Cc1nc2nc(Cc3ccccc3)[nH]n2c(=O)c1Cl	2.0%	i	17%	i	3.9e-09
30	Cc1ccc(Cl)cc1N1CCN(CC(=O)Nc2ccc3[nH]c(=O)[nH]c3c2)CC1	-1.7%	i	14%	i	1.2e-08
31	C/C(=C1/SC(=S)N(CCC(=O)O)C1=O)c1ccc(O)cc1	-4.1%	·	3%	·	·
32	C=CCn1c(SCC(=O)OCc2ccccc2)nc2c1c(=O)n(C)c(=O)n2C	0.7%	i	4%	i	1.6e-09
33	CCOC(=O)CSc1nc2sc3c(c2c(=O)n1CC)CC(C)(C)OC3	-1.3%	·	7%	·	·
34	COc1ccc(C(O)c2nc3ccccc3n2C)cc1OC (centres undefined)	-1.2%	·	10%	·	·
35	CCOC(=O)CSc1nnc(CNC(=O)Cc2ccccc2)n1C	-0.2%	i	-3%	i	2.7e-08
36	CCCn1c(C)nc2c(NC(C)CCCN(CC)CC)nc(C)nc21 (centres undefined)	-2.2%	·	24%	·	·
37	COc1ccc(COC(=O)C2=C(C)NC(=O)NC2c2ccc(O)c(OC)c2)cc1 (centres undefined)	1.8%	·	?	·	·
38	CC(=O)c1c(C)nc(-c2ccc(Cl)cc2Cl)n1O	-0.5%	i	-2%	i	1.1e-09
39	CC(C)(C)SCCNC(=O)CSc1ccccc1	0.1%	·	-1%[11.4 µM]	·	·
40	CCOC(=O)c1cccc(NC(=O)C2CCCN(S(=O)(=O)c3c(C)nn(C)c3C)C2)c1 (centres undefined)	6.6%	·	-4%	·	·
41	COc1ccc(S(=O)(=O)Cc2ccc(C(=O)N3CCN(c4ccccc4)CC3)o2)cc1	0.6%	·	15%	·	·
42	Cc1ccc2cc(CN(CC3CCCO3)C(=O)C(C)C)c(=O)[nH]c2c1 (centres undefined)	0.7%	i	-7%	i	1e-09
43	Cn1c(=O)c2c(ncn2CC(=O)N2CCN(c3ccc(F)cc3)CC2)n(C)c1=O	-0.8%	i	6%	i	2.7e-09
44	CCOC(=O)/C=C1\SCC(=O)N1Cc1nnc(-c2ccccc2Br)o1	-0.6%	i	3%	i	3.5e-08
45	NS(=O)(=O)Cc1noc2ccccc12	-2.8%	i	2%	i	6.6e-08
46	COC(=O)C1=C(C)Nc2nnnn2C1c1ccc(Cl)cc1Cl (centres undefined)	-3.6%	i	11%	i	1.2e-08
47	COc1cccc(CNC(=O)C2CCN(S(=O)(=O)c3ccc(F)cc3)CC2)c1	-0.1%	i	1%	i	3.9e-09
48	CN1C(=O)c2ccc(NC(=O)c3c(F)c(F)c(F)c(F)c3F)cc2C1=O	-1.7%	i	14%	i	7.3e-08
49	CCOCCn1c(SCCCc2ccccc2)nc2c1c(=O)[nH]c(=O)n2C	-0.3%	i	·	i	2e-09
50	CC1(C)CC(C2N3CC4(C)CN2CC(C)(C3)C4=O)CCO1 (centres undefined)	-0.3%	i	3%	i	2.3e-08
51	COc1ccccc1CN1CCCC(C(=O)N(C)Cc2ccccc2)C1 (centres undefined)	-0.7%	i	8%	i	6.7e-09
52	CCCCC[C@@H](O)[C@@H]1C(=O)O[C@@H](C)[C@@H](O)\C=C/C=C\C=C/C=C\C=C(\C)[C@H](O)C[C@H](O)C[C@H](O)C[C@H](O)C[C@H](O)C[C@H](O)C[C@@H]1O	·	i	·	i	3.9e-09
53	CC(c1ccco1)N(C(=O)c1ccc(S(=O)(=O)N2CCCCC2)cc1)c1ccccn1 (centres undefined)	0.7%	i	5%	i	5.6e-08
54	OCCN1CCN(c2nc(-c3ccccc3)nc3c2oc2ccccc23)CC1	1.3%	i	·	i	9.2e-09
55	Cc1ccc(C2(C(F)(F)F)NC(=O)N3CCCN=C3S2)cc1 (centres undefined)	0.6%	i	10%	i	3.4e-09
56	CCC1CCCN1Cn1cnc2c([nH]c3ccccc32)c1=O (centres undefined)	-0.5%	i	-6%[11.4 µM]	i	3.1e-08
57	Nc1nonc1-c1nc2ccccc2n1CC(=O)N1CCN(c2ccc(F)cc2)CC1	1.5%	i	?	i	4.1e-08
58	CC1(C)Cc2c(sc3ncn4nc(-c5ccco5)nc4c23)CO1	·	i	·	i	1.1e-09
59	CNC(=O)C(Sc1ccccc1)c1ccccc1 (centres undefined)	0.7%	·	7%[11.4 µM]	·	·
60	CCOC(=O)Cn1c(=O)c2c(nc(N3CCCCC3)n2C)n(C)c1=O	0.4%	i	-4%	i	7.9e-09
61	COc1ccc(N2C(=O)C3CCCN3C2c2cccc(F)c2)cc1Cl (centres undefined)	-0.9%	i	12%	i	5.4e-09
62	CCc1nnc(NC(=O)C2CCN(c3cnccn3)CC2)s1	-1.2%	i	2%	i	1e-09
63	CCOc1ccc(NC(=O)c2ccco2)cc1	-1.5%	i	-2%	i	1.4e-09
64	COC(=O)c1ccccc1NC(=O)CSc1nc(-c2ccco2)cc(C(F)(F)F)n1	2.3%	i	?	i	3.2e-09
65	CN1CCN(c2nc(-c3cccs3)cc(C(F)(F)F)n2)CC1	-0.4%	i	9%[11.4 µM]	i	3.5e-08
66	CC(=O)c1cccc(NC(=O)C=C(C)C)c1	-1.0%	i	-4%	i	1e-09
67	COc1cc(NC(=O)c2noc3c2CCCC3)c(OC)cc1Cl	1.2%	i	?	i	1e-09
68	Cn1nc(C(=O)Nc2cccc(C(F)(F)F)c2)ccc1=O	-0.8%	i	?	i	1.2e-09
69	CC(=O)c1cc(F)c(N2CCN(CCC#N)CC2)cc1C	-0.4%	·	-3%	·	·
70	Nc1c(S(=O)(=O)O)cc(Nc2ccc(Nc3nc(Cl)nc(Nc4ccc(S(=O)(=O)O)cc4)n3)c(S(=O)(=O)O)c2)c2c1C(=O)c1ccccc1C2=O	-7.3%	i	-14%	i	4.8e-09
71	O=C(O)C[C@H]1OCC=C2C[N@@+]3([O-])CC[C@]45c6ccccc6N[C@@H]4[C@@H]1[C@H]2C[C@H]53	0.6%[11.5 µM]	i	-5%[11.4 µM]	i	7e-09
72	CCCOC(=O)NC(CC)COC(=O)Nc1cccc(C)c1C (centres undefined)	-1.7%	i	12%	i	6.8e-09
73	CC(C)c1nnc(NC(=O)c2ccc(S(=O)(=O)N3CCOCC3)cc2)s1	0.5%	·	5%	·	·
74	CCc1cc(=O)n2[nH]c(C)c(-c3ccccc3OC)c2n1	0.6%	·	?	·	·
75	CC1(C)CC(=O)C(C=Nc2cccnc2)=C(O)C1	0.2%	·	0%	·	·
76	COC(=O)[C@@]1(Cc2ccccc2)[C@H]2c3cc(C(=O)N4CCCC4)n(Cc4ccsc4Br)c3C[C@H]2CN1C(=O)c1ccccc1	2.1%	·	?	·	·
77	Brc1ccc(NCc2nnc3n2CCCCC3)cc1	1.1%	i	?	i	1.2e-08
78	Cc1cc(N2CCN(c3ccccc3)CC2)nc(-c2ccccc2)n1	0.2%	i	?	i	4.6e-08
79	CC(C)CCNC(=O)C(c1ccco1)N(CC1CCCO1)C(=O)Cn1nnc2ccccc21 (centres undefined)	0.1%	i	?	i	1.5e-08
80	COc1cccc(NC(=O)N2CCCC2C(=O)NCC(C)C)c1 (centres undefined)	-0.6%	i	-3%	i	5.7e-09

# A portion from further up, for reference:
No.	SMILES	AID923	Resorufin autofl	TSHR ag	A488 fluor	A647 autofl
74	CCc1cc(=O)n2[nH]c(C)c(-c3ccccc3OC)c2n1	0.6%	·	?	·	·
75	CC1(C)CC(=O)C(C=Nc2cccnc2)=C(O)C1	0.2%	·	0%	·	·
76	COC(=O)[C@@]1(Cc2ccccc2)[C@H]2c3cc(C(=O)N4CCCC4)n(Cc4ccsc4Br)c3C[C@H]2CN1C(=O)c1ccccc1	2.1%	·	?	·	·
